CtBP-E1A inh – qHTS Assay for Inhibitors of the CtBP/E1A Interaction; CtBP / adenovirus E1A interaction (AlphaScreen); AlphaScreen GST-E1A/His-CtBP binding, 1536-well; stronger effect = lower value; control for the full effect not named in the record; activity change, % (concentration not given with the values); actives 0.49% (n = 340,000); AID 651724, 2012; in the data active means activity change below about -65%; inconclusive means about -30% to -65%; inactive means above about -30%; also: % is scaled to controls: 0 for no effect and ±100 for the full control effect
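In 5 uL wells, 23 nL compound meets equimolar GST-E1A and His-CtBP (5X stock 125 nM each) for 2 h, 37 °C. Beads (5X, 50 ug/mL) then 1 h, 37 °C, dark.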
TRPV1 PAM – HTS Assay for Compounds that Act as Potentiators of the Vanilloid Receptor 1. Transient receptor potential cation channel subfamily V member 1 (Homo sapiens), Q8NER1. TRPV1-expressing cells, Fluo-8 calcium influx, capsaicin EC20 potentiation; host cell line not named in the record; control for the full effect not named in the record. potentiation, % at 8.33 µM. actives 0.02% (n = 320,000). AID 540277, 2011; active means potentiation above 80%; inconclusive means 30% to 80%; inactive means below 30%; also: 0% is about no effect
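TRPV1-expressing cells were cultured overnight at 35.5C and loaded with Fluo-8 calcium dye for 40 to 90 min at room temperature. After a 10 s baseline, compound was added and calcium influx was read kinetically for 3 min (ex 480/em 520 nm).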
TRPML1 ag – qHTS for Agonists of the Human Mucolipin Transient Receptor Potential 1 (TRPML1); TRPML1-expressing cells, Ca2+ dye fluorescence, FDSS; host cell line not named in the record; reference of the full effect not given here; activation, % (concentration not given with the values); actives 0.12% (n = 410,000); in the data active = activation above about 50%; inconclusive = about 30% to 50%; inactive = below about 30%; also: 0% is about no effect; the text of the record puts the active cut at 80%
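In this qHTS format, compounds were pin-transferred onto Ca8-dye-loaded TRPML1-DL cells induced with Tet overnight, and intracellular Ca2+ fluorescence was recorded kinetically for 110 s after a 10 s baseline. A subsequent 4uM final 54-4 (EC80) addition followed by a second 110 s read served as the antagonist phase.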
Six1-Eya2 inh – qHTS Assay for Inhibitors of the Six1/Eya2 Interaction; AlphaScreen GST-Six1/His-Eya2 binding, biochemical; stronger effect = lower value; control for the full effect not named in the record; activity change, % (no concentration beside the values); actives 0.56% (n = 360,000); AID 651725, 2012; in the data active = activity change below about -65%; inconclusive = about -30% to -65%; inactive = above about -30%; also: % is scaled to controls: 0 for no effect and ±100 for the full control effect; compound concentration not given in the record
Target sequence (O00167 whole entry, looked up): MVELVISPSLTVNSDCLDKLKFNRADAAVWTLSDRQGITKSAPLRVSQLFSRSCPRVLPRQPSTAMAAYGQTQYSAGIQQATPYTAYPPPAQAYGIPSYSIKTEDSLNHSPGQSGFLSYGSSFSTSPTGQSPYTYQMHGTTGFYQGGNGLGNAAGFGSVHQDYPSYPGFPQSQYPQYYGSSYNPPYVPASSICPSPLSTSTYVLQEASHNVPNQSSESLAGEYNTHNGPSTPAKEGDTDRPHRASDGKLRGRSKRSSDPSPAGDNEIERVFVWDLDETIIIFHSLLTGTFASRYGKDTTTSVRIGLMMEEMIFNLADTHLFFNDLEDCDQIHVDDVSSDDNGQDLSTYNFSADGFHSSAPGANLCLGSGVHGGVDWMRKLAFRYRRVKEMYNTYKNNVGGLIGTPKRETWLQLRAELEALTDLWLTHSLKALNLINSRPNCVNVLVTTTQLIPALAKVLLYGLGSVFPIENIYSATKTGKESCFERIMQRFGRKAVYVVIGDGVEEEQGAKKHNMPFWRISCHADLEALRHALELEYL
Target sequence (Q15475 whole entry, looked up): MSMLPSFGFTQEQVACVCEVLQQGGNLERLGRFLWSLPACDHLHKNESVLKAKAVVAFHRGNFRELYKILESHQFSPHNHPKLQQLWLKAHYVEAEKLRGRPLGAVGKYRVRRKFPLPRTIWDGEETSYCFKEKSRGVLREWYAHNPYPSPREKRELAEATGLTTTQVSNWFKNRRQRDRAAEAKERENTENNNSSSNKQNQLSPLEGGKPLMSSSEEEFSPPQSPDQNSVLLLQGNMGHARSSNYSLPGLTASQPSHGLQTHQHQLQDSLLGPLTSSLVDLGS
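Six1/Eya2 binding was read as AlphaScreen signal after compounds were pinned into GST-Six1 plus His-tagged Eya2 (5X stock 250/500 nM) in pH 8.0 Tris/NaCl/TCEP buffer, beads added, then incubated 1 h, 37 C, dark.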
TRPML1 blocker – qHTS for Inhibitors of the Human Mucolipin Transient Receptor Potential 1 (TRPML1); Mucolipin-1 (Homo sapiens), Q9GZU1; TRPML1-inducible cells, Ca2+ dye fluorescence, FDSS; stronger effect = lower value; inhibition of EC80 agonist-evoked calcium signal; activity change, negative = inhibition, % (test concentration not listed); actives 0.02% (n = 390,000); AID 624415, 2012; in the data active means activity change below about -50%; inconclusive means about -30% to -50%; inactive means above about -30%;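 also: stimulus is agonist 54-4 at its EC80 concentration; % is scaled to controls: 0 for no effect and ±100 for the full control effect; compound concentration not given in the record; the text of the record puts the active cut at -80%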
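TRPML1-DL cells, Tet-induced overnight (~16 h, 37 °C) at 1,500 cells/well, were loaded with Ca8 no-wash dye plus quencher for 45-90 min at room temperature. Compounds were pinned during FDSS kinetic reading; agonist 54-4 at EC80 (4 uM final) then added.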
D2 potentiator – Beta-Arrestin HTS for Positive Allosteric Modulators of the Human D2 Dopamine Receptor: Potentiators; potentiation, % (concentration not given with the values); D(2) dopamine receptor (Homo sapiens), P14416; AID 624464, 2012; actives 0.23% (n = 360,000); DiscoveRx D2 beta-arrestin cells, luminescence, 90 min; 100% = 57 uM dopamine signal; active = potentiation of 50% or more; inconclusive = 30% to 50%; inactive = 30% or less;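 also: compound concentration not given in the record; tested on top of an EC20 dose of dopamine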
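PathHunter D2 cells, attached overnight at 37 deg C, received compound in DMSO plus dopamine at EC20 (50 nM final) for 90 min at 37 deg C. Beta-arrestin recruitment was read as luminescence after 1 h with detection reagent at ambient temperature.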
* marks the source's active call; other numbers are inactive results; ? = inconclusive; . = not tested or not shown.

SMILES	CtBP-E1A inh	TRPV1 PAM	TRPML1 ag	Six1-Eya2 inh	TRPML1 blocker	D2 potentiator
Cc1cc(C)n(-c2nc3c(c(=O)n(C)c(=O)n3C)n2Cc2cccc(Br)c2)n1	10	.	.	0	.	-3
COc1ccc(OC)c(NC(=O)c2cc(-c3cc(C)cc(C)c3O)n[nH]2)c1	4	-2	-1.4	-2	1	-3
CCOC(=O)c1c(-c2cccs2)csc1NC(=O)c1ccncc1	7	-22	-0.6	3	6	-1
CCc1[nH]nc(C(=O)NC2CCCN(Cc3ccccc3F)C2)c1C (stereo not drawn)	10	-19	1.2	0	28	-9
COc1ccc(C2C=C(c3ccc(C)c(C)c3)Nc3ncnn32)c(OC)c1OC (stereo not drawn)	-8	.	3.9	-15	45	-3
Cc1ccc(N2CC(C(=O)NCCc3ccc(S(N)(=O)=O)cc3)CC2=O)cc1 (stereo not drawn)	7	-2	0.7	6	1	4
Cc1cc2n(n1)C(c1cn(-c3ccccc3)nc1C)Nc1ccccc1-2 (stereo not drawn)	-10	-17	0.5	-8	77	2
CC1CCCC(C)N1CC(O)COc1c(F)cc(Br)cc1F (stereo not drawn)	.	0	-0.4	18	29	-8
COC(=O)C(C#N)(CCC(=O)c1ccccc1)CCC(=O)c1ccccc1	1	.	-1.0	-2	.	-4
COc1nc(C)nc2c1sc(=S)n2C	-4	4	3.7	1	-1	10
CCN(CC)S(=O)(=O)c1cccc(C(=O)NCCCN2CCOCC2)c1	13	27	-0.1	9	19	-10
Cc1ccc(-c2ccc(/C=N/O)o2)cc1[N+](=O)[O-]	.	-4	1.9	-2	0	-2
Cc1cccc(C)c1OCCCCN1CCCCC1	.	-3	0.6	-1	45	-6
CCOC(=O)N1CCN(C(=O)CN(c2ccccc2)S(C)(=O)=O)CC1	.	15	-0.2	10	4	-5
CC(C)c1onc(C(=O)Nc2sc3c(c2C#N)CCC3)c1[N+](=O)[O-]	-6	1	-0.5	-8	-9	-8
O=C(NCCCn1ccnc1)/C(=C/c1ccc(F)cc1)NC(=O)c1ccccc1	2	4	0.2	-6	9	-6
Cc1cc(NN)nc2ccc(Cl)cc12	-1	-3	-0.1	-14	-14	0
C=C(C)CCC(C)N1CCC(n2nccc2NC(=O)CCOc2ccccc2)CC1 (stereo not drawn)	-10	-10	-0.3	11	-10	-36
Cc1ccc(-n2c(SCC(=O)N3CCOCC3)nnc2-c2ccncc2)cc1C	.	-13	-0.6	2	-9	-14
OCCC#Cc1ccc(CN2CCN(C3CCCCC3)C(CCO)C2)cc1 (stereo not drawn)	-5	0	0.8	3	3	-4
CCCCN(C(=O)c1cc(CC)c(C)s1)c1c(N)n(CCC)c(=O)[nH]c1=O	3	6	0.2	2	8	-2
COCCCNC(=O)CSc1ccsc1[N+](=O)[O-]	.	4	-0.3	10	1	-11
Cc1c(C)n(C(=O)CN2CCN(c3ccccn3)CC2)c2ccccc12	-9	13	-0.4	-17	-2	-1
CCOC(=O)[C@]12CCC=C1N(Cc1ccco1)C(=O)[C@H](CC(=O)NCc1ccc(C)o1)C2	-5	.	-0.6	-13	.	.
CC(NC(=O)COc1ccccc1-c1ccccc1)c1ccccc1 (stereo not drawn)	15	-3	2.0	4	0	1
COc1cc(C(=O)OCC(=O)NCc2ccccc2)cc(NC(=O)c2ccco2)c1OC	?	-34	0.0	?	10	-18
COc1ccc(OC(C)C(=O)N(C)Cc2nc(-c3cccc(C)c3)no2)cc1 (stereo not drawn)	-1	0	0.5	-2	-24	-2
Cc1[nH]n(-c2ccccc2)c(=O)c1/C=N/Nc1nncc(-c2ccccc2)n1	-91*	-15	-0.4	-91*	-11	-24
COc1ccc(CN2C3CCCC2CC(NC(=O)Nc2cccc(C)c2)C3)cc1 (stereo not drawn)	-1	10	2.4	0	16	-48
CCCCOc1ccccc1NC(=O)c1ccc(=O)[nH]c1	3	-12	1.8	1	-8	0
O=C(Cc1cccc(NC(=O)C2CCCN(C(=O)C3CC3)C2)c1)Nc1ccc(C(=O)N2CCCCC2)cc1 (stereo not drawn)	5	.	-0.7	0	-3	.
C/C(=N\NC(=O)c1nnn(-c2nonc2N)c1COc1ccc(F)cc1)c1ccc(Cl)cc1	6	-3	0.4	13	-3	-6
CN1CCN(c2nc3ccccn3c(=O)c2/C=C(\C#N)S(=O)(=O)c2ccccc2)CC1	-19	?	-0.3	1	-13	-14
CCCc1cc(=O)[nH]c(SCc2cccc(C)c2)n1	0	-7	0.5	0	-2	-15
Cc1ccc(C(=O)NCc2ccc(F)cc2)cc1NC1=NC2CS(=O)(=O)CC2S1 (stereo not drawn)	4	-5	-0.8	-9	8	0
Cn1c(CSCc2ccccc2Cl)nnc1SCC(=O)Nc1nccs1	-1	-4	-0.1	0	13	-2
Nc1ccccc1Oc1ccc2ccccc2c1	.	4	0.0	9	-17	-5
Cc1[nH]c2c(C)cccc2c(=O)c1Br	2	15	-0.2	-2	3	1
COc1ccc(CCN=C(N)NS(=O)(=O)c2cccs2)cc1OC	-4	4	-0.3	7	-18	-5
COc1cc(NC(=O)COn2nnc3ccc(S(C)(=O)=O)cc32)cc(OC)c1	17	3	0.9	-1	-16	-5
O=C(O)CCCC(=O)OCc1c(-c2ccccc2)ncc2ccccc12	2	19	0.4	2	-1	-7
COc1ccccc1OCC(=O)Nc1ccc(-c2nnc(-c3ccco3)o2)cc1	-2	4	-1.0	1	-15	-15
Cc1ccc(N/C(SCc2ccccc2C)=C(/C#N)C(=O)NCc2ccco2)cc1C	-15	-6	0.4	-20	-2	-22
CCc1ccc(S(=O)(=O)N2CCN(c3ccccc3OC)CC2)cc1	6	17	0.7	-8	32	1
CC1CCc2c(sc3nc(C(C)(C)C)nc(N4CCN(C(=O)CCl)CC4)c23)C1 (stereo not drawn)	-17	4	0.2	-7	18	0
O=C(NCC(=O)N1CCOCC1)c1ccc(Cl)c(Cl)c1	7	.	0.0	-1	1	-3
COc1ccc(CNCCC(c2ccccc2)c2ccc(OC(C)C)cc2)cc1OC (stereo not drawn)	-11	10	-0.8	-4	1	-17
CCOc1cc2[nH]c(=S)n(CCN3CCCCC3CC)c(=O)c2cc1OCC (stereo not drawn)	-18	9	-1.0	1	-2	-9
COC(=O)C1=C(C)N(Cc2ccco2)C(=O)/C1=C\c1ccc([N+](=O)[O-])cc1	4	11	5.2	-19	-1	0
CCOC(=O)C1=C(COC(=O)/C=C/c2cccc(OC)c2)NC(=O)NC1C (stereo not drawn)	-4	5	1.2	-4	25	4
O=C(COc1cccc(F)c1)N1c2ccccc2Sc2ccccc21	0	2	3.8	?	-9	93*
COc1ccc(NC(C)=O)cc1NC(C)C(=O)Nc1cccc2ccccc12 (stereo not drawn)	7	8	1.3	0	3	5
Cc1cc(C)c2cc(CN(CCN3CCCC3)C(=O)Nc3ccc(F)cc3)c(=O)[nH]c2c1	-12	6	0.0	0	0	-8
Cc1ccc(S(=O)(=O)Nc2ccc(-c3ccc4nncn4n3)cc2)cc1	-3	-2	1.1	-15	5	3
COc1ccc(Cl)c(-c2cc(C(=O)NCc3ccco3)[nH]n2)c1	-5	.	-1.0	-13	.	-12
C#CCN1CCc2onc(-c3ccccc3OC)c2C1=O	2	.	-0.8	16	.	-5
O=C(Cn1cnc2c(nnn2-c2ccccc2)c1=O)NCc1ccco1	0	-28	-0.4	-2	6	-2
COc1ccc(CN(CC(=O)NC2CCCC2)C(=O)c2ccc(-c3ccccc3)[nH]2)cc1	0	-7	0.8	?	9	-19
CC(=O)c1ccc(NC(=O)c2cc(CC(C)C)nc3ccccc23)cc1	-13	-20	2.5	0	-18	-1
COc1ccc(OC)c(S(=O)(=O)Nc2ccc(C(N)=O)cc2)c1	5	-2	0.4	6	52	-7

One compound at a time, from the list above:
Shown for O=C(NCC(=O)N1CCOCC1)c1ccc(Cl)c(Cl)c1 : CtBP-E1A inh = 7; TRPV1 PAM = .; TRPML1 ag = 0.0; Six1-Eya2 inh = -1; TRPML1 blocker = 1; D2 potentiator = -3
Shown for CC(=O)c1ccc(NC(=O)c2cc(CC(C)C)nc3ccccc23)cc1 : CtBP-E1A inh = -13; TRPV1 PAM = -20; TRPML1 ag = 2.5; Six1-Eya2 inh = 0; TRPML1 blocker = -18; D2 potentiator = -1
Shown for COC(=O)C1=C(C)N(Cc2ccco2)C(=O)/C1=C\c1ccc([N+](=O)[O-])cc1 : CtBP-E1A inh = 4; TRPV1 PAM = 11; TRPML1 ag = 5.2; Six1-Eya2 inh = -19; TRPML1 blocker = -1; D2 potentiator = 0

Next part.
SMILES	CtBP-E1A inh	TRPV1 PAM	TRPML1 ag	Six1-Eya2 inh	TRPML1 blocker	D2 potentiator
Oc1ccc(C=NNc2nc3ccccc3s2)c(O)c1	-25	.	-1.0	-17	-5	1
Cc1ccc(NC(=O)CNC(=O)CN2C(=O)c3ccccc3C2=O)cc1	5	.	-1.0	0	.	-8
CCC(=O)c1ccc(OCC(=O)OCC(=O)N2CCCc3ccccc32)cc1	4	-1	1.4	-1	0	-1
CN(C)c1ccc(N/C=C/C(=O)c2ccco2)cc1	?	-24	-0.3	?	1	55*
O=c1[nH][nH]c(C(F)(F)F)c1C=NCc1ccccc1Cl	-7	0	1.0	-1	-3	-6
Cc1nn(C(=O)CCC(=O)NCc2cccc(F)c2)c2ccccc12	.	0	0.2	1	0	-2
COC(=O)c1ccc(OC(=O)C2CC(=O)N(c3ccc(C)cc3C)C2)cc1 (stereo not drawn)	0	.	0.6	-6	-4	-6
O=C(CSc1nnc(-c2cccs2)n1-c1ccccc1)NCc1ccco1	3	-5	1.2	-6	-20	-16
CCCCN1C(=O)C(CC(=O)NCCc2ccccn2)CC(C(=O)N(C(C)C)C(C)C)=C1C (stereo not drawn)	4	.	-0.6	-1	-6	4
O=C(Nc1ccc2ncccc2c1)c1ccccc1Br	0	-21	-0.4	24	-3	-5
Cc1nn(C)c(C)c1NS(=O)(=O)c1c(C)n[nH]c1C	3	.	0.0	8	-6	-1
Cc1oc(-c2ccccc2)cc1C(=O)NCc1ccncc1	3	-8	0.9	-2	6	-19
O=C1CSC(=O)N1CCOCCN1C(=O)CSC1=O	3	-2	-0.4	5	11	4

Part of the list above in order of heavy-atom count, low to high:
SMILES	CtBP-E1A inh	TRPV1 PAM	TRPML1 ag	Six1-Eya2 inh	TRPML1 blocker	D2 potentiator
Cc1nn(C)c(C)c1NS(=O)(=O)c1c(C)n[nH]c1C	3	.	0.0	8	-6	-1
COC(=O)c1ccc(OC(=O)C2CC(=O)N(c3ccc(C)cc3C)C2)cc1 (stereo not drawn)	0	.	0.6	-6	-4	-6
CCCCN1C(=O)C(CC(=O)NCCc2ccccn2)CC(C(=O)N(C(C)C)C(C)C)=C1C (stereo not drawn)	4	.	-0.6	-1	-6	4

Screening data: PubChem BioAssay, National Center for Advancing Translational Sciences (NCATS)

An unsorted share of the library. Share with any hit: about 0.95%.
